# Env fusion inh: inhibitors of HIV Env-mediated cell fusion. inhibition, % at 12.3 µM. 1.1% of 360,000 active. HeLa-JRFL Env/CEM21 cell fusion, luciferase. AID 651610;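 active means mean replicate inhibition score of at least 50 and every replicate individually at or above 50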;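 further: 0% = plate neutral controls and 100% = maraviroc near 300 nM; one replicate is shown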
# Yeast UUG start: modulators of start codon recognition fidelity in yeast; S. cerevisiae UUG-firefly luciferase reporter, luminescence/redox ratio; activity score, % at 18.7 µM; 0.13% of 350,000 active; AID 602363;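 active means replicate mean at a twofold rise or more, about +100% in these data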;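 further: firefly luciferase made from a UUG start codon reports start codon fidelity; reporter light over untreated wells divided by growth signal over untreated wells; some hits fall short of that in this replicate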
# * hit, by the source's call; [ ] = remark or other dose. The list is partial, so the mix of outcomes need not match the whole.
SMILES,Env fusion inh,Yeast UUG start
C[C@@H]1CN([C@H](C)CO)C(=O)Cc2cc(NC(=O)CCCCCC(=O)Nc3ccccc3N)ccc2O[C@@H]1CN(C)Cc1ccc(Oc2ccccc2)cc1,56*[16.7 µM],-5
C[C@@H]1CN([C@@H](C)CO)C(=O)Cc2cc(NC(=O)Cn3cnnn3)ccc2O[C@H]1CN(C)Cc1ccc(Oc2ccccc2)cc1,19[16.7 µM],25
C[C@@H]1CCCCO[C@@H](CN(C)S(=O)(=O)c2ccccc2)[C@H](C)CN([C@@H](C)CO)C(=O)c2cc(NS(=O)(=O)c3ccccc3)ccc2O1,-34[16.7 µM],2
COCC(=O)N1C[C@H](C)[C@H](OC)CN(C)C(=O)c2cc(NC(=O)c3ccc(OC)cc3)ccc2OC[C@H]1C,-5[16.7 µM],15
CC(C)NC(=O)N(C)C[C@@H]1Oc2ccc(NC(=O)Nc3ccc(F)cc3)cc2CC(=O)N([C@@H](C)CO)C[C@H]1C,-193[16.7 µM],35
CC(C)CC#Cc1cnc2c(c1)C(=O)N([C@@H](C)CO)C[C@H](C)[C@@H](CN(C)S(C)(=O)=O)O2,-77[16.7 µM],26
CCCNC(=O)N[C@@H]1CC[C@H](CC(=O)N2CCN(C)CC2)O[C@@H]1CO,3[16.7 µM],-12
CO[C@@H]1CN(C)C(=O)c2ccc(NS(C)(=O)=O)cc2OC[C@H](C)N(C(=O)C2CCOCC2)C[C@@H]1C,-12[16.7 µM],-1
O=C(Nc1ccc2c(c1)[C@H]1C[C@@H](CC(=O)N3CCCCC3)O[C@@H](CO)[C@H]1O2)Nc1ccccc1F,25[16.7 µM],-3
Cc1ccc(S(=O)(=O)Nc2ccc3c(c2)C(=O)N([C@@H](C)CO)C[C@H](C)[C@H](CN(C)S(=O)(=O)c2cn(C)cn2)OCCCC[C@H](C)O3)cc1,9[16.7 µM],0
CCNC(=O)Nc1ccc2c(c1)C(=O)N(C)[C@H]1CC[C@H](CC(=O)NCc3ccc(F)cc3)O[C@@H]1CO2,7[16.7 µM],-8
COCC#Cc1ccc2c(c1)O[C@H](CN(C)S(=O)(=O)c1ccc(F)cc1)[C@H](C)CN([C@@H](C)CO)S2(=O)=O,15[16.7 µM],39
C[C@H](CO)N1C[C@H](C)[C@@H](CN(C)S(=O)(=O)c2cn(C)cn2)Oc2ccc(NC(=O)Nc3ccccc3)cc2CC1=O,-1[16.7 µM],14
C[C@@H]1CN([C@H](C)CO)C(=O)c2cc(NC(=O)Cc3ccccc3)ccc2O[C@H]1CN(C)Cc1ccc(C(F)(F)F)cc1,45[16.7 µM],0
Cc1noc(C)c1NC(=O)Nc1ccc2c(c1)CC(=O)N([C@H](C)CO)C[C@@H](C)[C@H](CN(C)S(C)(=O)=O)O2,-3[16.7 µM],-2
C[C@@H]1CN([C@@H](C)CO)C(=O)Cc2cc(NS(=O)(=O)c3ccc(Cl)cc3)ccc2O[C@H]1CN(C)Cc1ccc(Cl)c(Cl)c1,83*[16.7 µM],-9
C[C@H](CO)N1C[C@H](C)[C@H](CN(C)C(=O)c2cccnc2)Oc2ncc(-c3ccc(C#N)cc3)cc2C1=O,-7[16.7 µM],154*
CC(C)C(=O)Nc1ccc2c(c1)C(=O)N(C)[C@@H]1CC[C@@H](CC(=O)N[C@H](C)c3ccccc3)O[C@H]1CO2,6[16.7 µM],4
C[C@@H]1CN([C@H](C)CO)C(=O)Cc2cc(NC(=O)Nc3cccc4ccccc34)ccc2O[C@@H]1CN(C)C(=O)Nc1ccc2c(c1)OCO2,10[16.7 µM],-2
C[C@H](CO)N1C[C@H](C)[C@@H](CN(C)CC2CCOCC2)Oc2cc(Br)ccc2S1(=O)=O,-16[16.7 µM],-7
C[C@@H]1CN([C@@H](C)CO)C(=O)Cc2cc(NC(=O)Nc3ccc(C(F)(F)F)cc3)ccc2O[C@H]1CN(C)C(=O)Nc1ccccc1,5[16.7 µM],2
Cc1noc(C)c1S(=O)(=O)Nc1ccc2c(c1)C(=O)N([C@H](C)CO)C[C@@H](C)[C@H](CN(C)C(=O)CCC(F)(F)F)OCCCC[C@@H](C)O2,-17[16.7 µM],22
CCNC(=O)Nc1ccc2c(c1)C(=O)N(C)[C@H]1CC[C@H](CC(=O)NCC3CC3)O[C@@H]1CO2,7[16.7 µM],2
N[C@@H]1CC[C@@H](CCn2cc(-c3cccc(F)c3)nn2)O[C@H]1CO,-21[16.7 µM],-8
C[C@@H](O)C#Cc1cnc2c(c1)C(=O)N([C@@H](C)CO)C[C@H](C)[C@H](CN(C)C(=O)Nc1ccc(F)cc1)O2,1[16.7 µM],-4
# Continuation.
SMILES,Env fusion inh,Yeast UUG start
C[C@H](CO)N1C[C@H](C)[C@H](CN(C)CC2CC2)Oc2cc(-c3cccnc3)ccc2S1(=O)=O,-14[16.7 µM],-12
Cc1ccc(-c2ccc3c(c2)O[C@H](CN(C)S(C)(=O)=O)[C@H](C)CN([C@@H](C)CO)S3(=O)=O)cc1,0[16.7 µM],15
Cc1noc(C)c1NC(=O)Nc1ccc2c(c1)CC(=O)N([C@@H](C)CO)C[C@H](C)[C@H](CN(C)C(=O)Nc1c(C)noc1C)O2,-18[16.7 µM],3
C[C@H](CO)N1C[C@H](C)[C@H](CN(C)CC2CCCCC2)Oc2ccc(NS(=O)(=O)c3cccs3)cc2C1=O,-29[16.7 µM],2
C[C@H]1CN([C@@H](C)CO)C(=O)Cc2cc(NC(=O)Cn3cnnn3)ccc2O[C@H]1CN(C)Cc1ccc(C(F)(F)F)cc1,92*[16.7 µM],6
CC(C)NC(=O)N(C)C[C@@H]1Oc2ccc(NC(=O)C3CC3)cc2CC(=O)N([C@@H](C)CO)C[C@@H]1C,59*[16.7 µM],-5
O=C(C[C@H]1C=C[C@H](NC(=O)Cc2ccccn2)[C@@H](CO)O1)NCCCN1CCOCC1,33[16.7 µM],-12
C/C=C/c1cnc2c(c1)C(=O)N([C@H](C)CO)C[C@@H](C)[C@@H](CN(C)C(=O)Nc1ccc(C(F)(F)F)cc1)O2,0[16.7 µM],12
CC(=O)N(C)C[C@@H]1Oc2cc(C#CC3CCCCC3)ccc2S(=O)(=O)N([C@@H](C)CO)C[C@H]1C,23[16.7 µM],8
C[C@H]1CN([C@@H](C)CO)C(=O)Cc2cc(NC(=O)C3CCCCC3)ccc2O[C@H]1CN(C)Cc1ccc(Oc2ccccc2)cc1,-120[16.7 µM],-1
C[C@@H]1CCCCO[C@H](CN(C)C(=O)Nc2cccc3ccccc23)[C@@H](C)CN([C@H](C)CO)C(=O)c2cc(NS(C)(=O)=O)ccc2O1,-19[16.7 µM],-1
CCCC(=O)Nc1ccc2c(c1)C(=O)N(C)C[C@H](OC)[C@H](C)CN(C(C)=O)[C@H](C)CO2,-8[16.7 µM],14
C[C@@H]1CCCCO[C@@H](CN(C)C(=O)Nc2ccccc2)[C@H](C)CN([C@@H](C)CO)C(=O)c2cc(NS(=O)(=O)c3ccc(Cl)cc3)ccc2O1,-29[16.7 µM],-6
C[C@@H]1CN([C@H](C)CO)S(=O)(=O)c2ccc(C#C[C@@H](C)O)cc2O[C@H]1CN(C)CC1CC1,-51[16.7 µM],5
COc1ccc(S(=O)(=O)Nc2ccc3c(c2)C(=O)N([C@H](C)CO)C[C@@H](C)[C@H](CN(C)S(=O)(=O)c2c(C)noc2C)OCCCC[C@@H](C)O3)cc1,-15[16.7 µM],10
COc1cccc(-c2ccc([C@H]3[C@@H](C#N)N(C(=O)c4ccccn4)[C@H]3CO)cc2)c1,7[16.7 µM],-2
Cc1ccc(-c2cnc3c(c2)C(=O)N([C@@H](C)CO)C[C@H](C)[C@H](CN(C)C(=O)c2cccc(F)c2)O3)cc1,-10[16.7 µM],6
C[C@@H]1CCCCO[C@@H](CN(C)C(=O)Nc2ccc(C(F)(F)F)cc2)[C@H](C)CN([C@@H](C)CO)C(=O)c2cc(N(C)C)ccc2O1,25[16.7 µM],10
O=C(C[C@@H]1C=C[C@H](NC(=O)C2CCOCC2)[C@@H](CO)O1)Nc1ccc(-c2ccccc2)cc1,4[16.7 µM],-5
C[C@@H]1CN([C@@H](C)CO)C(=O)c2cccc(NC(=O)Nc3ccc(F)cc3)c2O[C@H]1CN(C)S(C)(=O)=O,-6[16.7 µM],12
COc1ccc(NC(=O)N(C)C[C@@H]2Oc3c(NC(=O)c4ccc(-c5nccs5)cc4)cccc3C(=O)N([C@@H](C)CO)C[C@H]2C)cc1,9[16.7 µM],10
COc1cccc(NC(=O)N(C)C[C@H]2Oc3cc(-c4ccccc4OC)ccc3S(=O)(=O)N([C@H](C)CO)C[C@H]2C)c1,-40[16.7 µM],2
C[C@H](CO)N1C[C@H](C)[C@H](CN(C)C(=O)C2CCCCC2)Oc2ncc(Br)cc2C1=O,-3[16.7 µM],-12
O=C(Cc1ccccc1)N[C@@H]1CC[C@@H](CC(=O)N2CCOCC2)O[C@@H]1CO,-10[16.7 µM],14
CC(C)C#Cc1cnc2c(c1)C(=O)N([C@H](C)CO)C[C@@H](C)[C@H](CN(C)C(=O)Nc1cc(F)ccc1F)O2,7[16.7 µM],17

# Some of these compounds in order of molecular weight, high to low:
SMILES,Env fusion inh,Yeast UUG start
COc1ccc(S(=O)(=O)Nc2ccc3c(c2)C(=O)N([C@H](C)CO)C[C@@H](C)[C@H](CN(C)S(=O)(=O)c2c(C)noc2C)OCCCC[C@@H](C)O3)cc1,-15[16.7 µM],10
C[C@@H]1CCCCO[C@@H](CN(C)C(=O)Nc2ccccc2)[C@H](C)CN([C@@H](C)CO)C(=O)c2cc(NS(=O)(=O)c3ccc(Cl)cc3)ccc2O1,-29[16.7 µM],-6
C[C@@H]1CN([C@H](C)CO)C(=O)Cc2cc(NC(=O)Nc3cccc4ccccc34)ccc2O[C@@H]1CN(C)C(=O)Nc1ccc2c(c1)OCO2,10[16.7 µM],-2
C[C@H]1CN([C@@H](C)CO)C(=O)Cc2cc(NC(=O)C3CCCCC3)ccc2O[C@H]1CN(C)Cc1ccc(Oc2ccccc2)cc1,-120[16.7 µM],-1
Cc1noc(C)c1NC(=O)Nc1ccc2c(c1)CC(=O)N([C@@H](C)CO)C[C@H](C)[C@H](CN(C)C(=O)Nc1c(C)noc1C)O2,-18[16.7 µM],3
C[C@H](CO)N1C[C@H](C)[C@@H](CN(C)S(=O)(=O)c2cn(C)cn2)Oc2ccc(NC(=O)Nc3ccccc3)cc2CC1=O,-1[16.7 µM],14
C[C@H](CO)N1C[C@H](C)[C@H](CN(C)CC2CCCCC2)Oc2ccc(NS(=O)(=O)c3cccs3)cc2C1=O,-29[16.7 µM],2
Cc1ccc(-c2ccc3c(c2)O[C@H](CN(C)S(C)(=O)=O)[C@H](C)CN([C@@H](C)CO)S3(=O)=O)cc1,0[16.7 µM],15

# Remaining list, next part.
SMILES,Env fusion inh,Yeast UUG start
COCC(=O)N(C)C[C@@H]1Oc2cc(-c3cccc(F)c3)ccc2S(=O)(=O)N([C@@H](C)CO)C[C@H]1C,-6[16.7 µM],23
C[C@H](CO)N1C[C@H](C)[C@@H](CN(C)CC2CCCCC2)Oc2ccc(NS(=O)(=O)c3ccc(Cl)cc3)cc2CC1=O,10[16.7 µM],0
C[C@@H]1CCCCO[C@H](CN(C)C(=O)Nc2ccc3c(c2)OCO3)[C@H](C)CN([C@@H](C)CO)C(=O)c2cc(NS(=O)(=O)c3ccccc3)ccc2O1,-1[16.7 µM],13
Cc1noc(C)c1NC(=O)Nc1ccc2c(c1)C(=O)N([C@@H](C)CO)C[C@H](C)[C@@H](CN(C)Cc1ccc(Cl)c(Cl)c1)OCCCC[C@H](C)O2,18[16.7 µM],6
C[C@H](CO)N1C[C@H](C)[C@H](CN(C)Cc2ccccc2)Oc2ncc(-c3ccccc3F)cc2C1=O,10[16.7 µM],1
Cc1ccc(S(=O)(=O)N[C@@H]2CC[C@H](CC(=O)NCc3ccc(Cl)c(Cl)c3)O[C@H]2CO)cc1,-12[16.7 µM],-19
CCCC(=O)Nc1ccc2c(c1)C(=O)N(C)[C@H]1CC[C@@H](CC(=O)NCC3CCCCC3)O[C@H]1CO2,42[16.7 µM],1
C[C@H]1CN([C@@H](C)CO)C(=O)Cc2cc(NC(=O)Cn3cnnn3)ccc2O[C@H]1CN(C)C,-10[16.7 µM],-8
C[C@@H]1CN([C@@H](C)CO)C(=O)Cc2cc(NC(=O)Nc3cccc4ccccc34)ccc2O[C@H]1CN(C)Cc1ccc(Oc2ccccc2)cc1,1[16.7 µM],-6
C[C@@H]1CN([C@@H](C)CO)C(=O)c2cc(NC(=O)Nc3cccc4ccccc34)ccc2O[C@@H](C)CCCCO[C@H]1CN(C)Cc1ccncc1,1[16.7 µM],29
C[C@@H]1CCCCO[C@@H](CN(C)C(=O)Nc2ccc3c(c2)OCO3)[C@H](C)CN([C@H](C)CO)C(=O)c2cc(NC(=O)c3ccccc3)ccc2O1,-24[16.7 µM],9
C[C@@H]1CN([C@H](C)CO)C(=O)c2cc(NC(=O)Nc3cccc4ccccc34)ccc2O[C@@H]1CN(C)S(=O)(=O)c1ccc(F)cc1,6[16.7 µM],2
COc1cccc(NC(=O)N(C)C[C@H]2Oc3cc(-c4ccccc4F)ccc3S(=O)(=O)N([C@@H](C)CO)C[C@H]2C)c1,-31[16.7 µM],6
CCC(=O)N(C)C[C@@H]1Oc2cc(-c3ccc(C#N)cc3)ccc2S(=O)(=O)N([C@@H](C)CO)C[C@@H]1C,-18[16.7 µM],14
C[C@H](CO)N1C[C@H](C)[C@H](CN(C)C(=O)Nc2cccc3ccccc23)Oc2ncc(-c3ccccc3)cc2C1=O,42[16.7 µM],17
CCCN(C)C[C@@H]1Oc2ncc(C#Cc3ccc(F)cc3)cc2C(=O)N([C@H](C)CO)C[C@@H]1C,16[16.7 µM],2
C[C@@H]1CCCCO[C@@H](CN(C)C(=O)Nc2ccc(C(F)(F)F)cc2)[C@@H](C)CN([C@@H](C)CO)C(=O)c2cc(N(C)C)ccc2O1,-5[16.7 µM],3
C[C@@H]1CCCCO[C@H](CN(C)Cc2ccc(Cl)c(Cl)c2)[C@@H](C)CN([C@H](C)CO)C(=O)c2cc(NC(=O)Nc3ccc(F)cc3)ccc2O1,2[16.7 µM],0
C[C@H](CO)N1C[C@H](C)[C@H](CN(C)C(=O)CCCN(C)C)OCCCC[C@H](C)Oc2ccc(NC(=O)Nc3ccc4c(c3)OCO4)cc2C1=O,16[16.7 µM],-7
